# Screening data deposited in PubChem by ICCB-Longwood Screening Facility, Harvard Medical School.
# Choline anaer gr = growth inhibitors of anaerobic choline-fed gram-negatives, minimal medium, absorbance. Gram-negative bacterium anaerobic choline minimal medium; hits give low values; many inactives read as strong as hits in the columns shown. calls only. actives 0.2% (n = 55,000);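 active means growth z-score on choline under -2 at 7 or 20 h with little or no fall on glycerol, limits in tiers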;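 further: stock transfer was 300 nL into about 50 µL; the organism is E. coli; final concentration not given here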
# Choline anaer gr early = recorded beside Choline anaer gr, whose call it bears; z-score; measured here: choline growth z-score, timepoint 1;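 score of optical density at 7 h as mean of two plates; lower means less growth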
# * hit, by the source's call; i = inactive; & = joins results of further samples. Only part of the results is shown; the hit share may differ from the screen's.
# The line under a structure holds: Choline anaer gr early	Choline anaer gr
Cc1cccc(NC(=O)c2cc3nc(-c4ccc(Br)cc4)cc(C(F)(F)F)n3n2)n1
    -2.1	i
CC1(C)C(=O)N(CC(=O)Nc2ccc3c(c2)OCCO3)c2ccc(S(=O)(=O)N3CCCCC3)cc21
    1.4	i
O=c1c2c(nc3nc(CCc4ccccc4)[nH]n13)CCC2
    0.13	i
COc1ccccc1-c1cc2n(C)c(C)c(CCC(=O)N3CCN(C)CC3)c(=O)n2n1
    -0.31	i
Cc1c(Cl)cccc1NC(=O)CCc1nc(CSc2nnc(-c3ccccc3)o2)no1
    0.44	i
Cc1cc(=O)n2c(n1)NC(Nc1cccc(C)c1C)=NC2c1cccc(Cl)c1 (stereo not given)
    0.07	i
CN(C)C(=O)c1ccc2c(c1)N(CC(=O)N1CCN(c3ccccn3)CC1)C(=O)CS2
    -0.43	i
CCCS(=O)(=O)N1CCc2c(c(-c3nc(C4CC4)no3)nn2C)C1
    0.7	i
CC(C)(C)c1csc(-c2csc(S(=O)(=O)Nc3ccccc3)c2)n1
    0.31	i
Cc1ccsc1-c1nnc(C2CCOC2)o1 (stereo not given)
    -0.2	i
COc1ccc(NC(=O)CN2C(=O)CSc3ccc(C(=O)N4CCCC4)cc32)cc1
    0.09	i
Cc1nn(C)c(C)c1CNC(=O)NC1CCCC1
    0.31	i
CCOc1ccc(-n2c(=O)c3sc4ncccc4c3n(CC(=O)NC3CCCCC3)c2=O)cc1
    0.2	i
CCOc1ccc(NC(=O)C(CC)n2nc(-c3ccc(C)cc3)ccc2=O)cc1 (stereo not given)
    1	i
O=C(NCc1ccc(N2CCCC2)cc1)c1sc2ncccc2c1-n1cccc1
    -0.05	i
Cc1ncc([N+](=O)[O-])n1CC(O)CCl (stereo not given)
    0.56&0.21&0.97	i
COC(=O)c1ccc(NC(=O)NCCn2cnc3cc(C(=O)N(C)C)ccc32)cc1
    0.18	i
N[C@@H]1CCN(O)C1=O
    0.63	i
Cc1nc2cc(-c3noc(-c4cnccn4)n3)ccc2o1
    -2.3	i
Cc1[nH]c(C(=O)N2CCCC2)c(C)c1S(=O)(=O)N1CCCC1
    -0.27	i
O=C1CN(Cc2cccc(Br)c2)S(=O)(=O)c2ccccc2N1Cc1ccccc1F
    0.22	i
COc1ccc2cc3c(nc2c1)N(C(=O)C(C)(C)C)CC3
    1.2	i
O=C(Nc1cccc(-c2nnc(-c3ccccc3)o2)c1)Nc1ccccc1Br
    1.5	i
O=c1cc(-c2ccc(F)cc2)nc(N2CCN(Cc3ccc4c(c3)OCO4)CC2)[nH]1
    0.3	i
CC(C)(C)c1ccc(O)c(NC(=O)c2cn(-c3ccc(S(=O)(=O)N4CCCCC4)cc3)cn2)c1
    -0.49	i
CCc1cccc(C)c1NS(=O)(=O)c1cc(-c2nc(C)c(C)s2)sc1C
    0.18	i
CCOc1ccc(-c2c(C)nn3c(C)c(C(=O)NCc4ccc5c(c4)OCO5)cnc23)cc1OCC
    0.2	i
COc1ccc(N2C(=O)CCS2(=O)=O)cc1S(=O)(=O)Nc1ccc(F)cc1
    -0.87	i
CN1C(=O)C2(CCN(C(=O)CC(C)(C)C)C2)c2ccccc21 (stereo not given)
    0.08	i
CC(C)C(=O)Nc1ccc(N2CCN(CC(=O)NC(C)(C)C)CC2)cc1C(=O)O
    0.35	i
Cc1ccccc1CC(=O)N1CCC2(CC1)Nc1ccc(C)c(C)c1-n1cccc12
    0.01	i
COc1ccc2cc3n(c2c1)CC(C)(C(=O)NC1CCCC1)N(C1CCC(C)CC1)C3=O (stereo not given)
    0.29	i
COc1ccc(CN2C(=O)c3ccc(-c4ccccc4)n3CC2(C)C(=O)NC2CCCC2)cc1 (stereo not given)
    0.5	i
Cc1ccccc1Cc1nc2ccccc2n1CC(O)COc1ccccc1 (stereo not given)
    1.2	i
C[C@@H]1CC2C3CCC4=CC(=O)C=CC4(C)C3(F)[C@@H](O)CC2(C)C1(O)C(=O)CO (stereo not given in full)
    0.72	i
Cc1ccc(S(=O)(=O)Nc2ccc3c(c2)nc(-c2ccc(C(=O)NC(C)C)cc2)n3C)cc1
    1.2	i
Cc1ccc2c(c1)n(Cc1cccc(F)c1)c(=O)c1nc(C(=O)NCCCN(C)Cc3ccccc3)nn12
    -0.12	i
COc1ccc(CSc2nccc3c2ccn3CC(=O)NCc2ccc(OC)c(OC)c2)cc1
    1.9	i
Cc1sc(-c2ccno2)cc1S(=O)(=O)N1CCOCC1
    -1.5	i
O=C(NCc1ccccc1Cl)c1cccc(-n2cnc3cccnc32)c1
    -1.5	i
CC1CCCCN1Cc1nnc(-c2ccccc2)o1 (stereo not given)
    -0.27	i
CCC(C)NS(=O)(=O)c1ccc2c(c1)N(Cc1noc(C)n1)C(=O)CO2 (stereo not given)
    0.28	i
CCc1ccc(S(=O)(=O)N2CCCC2c2cc(C(C)C)no2)cc1 (stereo not given)
    0.37	i
O=C(c1nc(-c2csc(S(=O)(=O)NC3CC3)c2)no1)N1CCOCC1
    -0.09	i
COc1ccc(-n2c(/C=C/c3c[nH]c4ccc(OC)cc34)nc3ccccc3c2=O)cc1
    0.23	i
Cc1csc(NC(=O)Cn2c(=O)n(C(C)C)c3ccc(-c4noc(C)n4)cc32)n1
    -0.14	i
Cc1ccc2[nH]cc(CCNC(=O)CCn3c(=O)c(C)nc4cc(C)c(C)cc43)c2c1
    1.3	i
Cc1cccc2c(C(=O)N3CCN(c4c(C)n(C)c(=O)n(C)c4=O)CC3)cc(-c3ccccc3)nc12
    -0.01	i
CCCc1cc(C2CCCN2S(=O)(=O)c2ccc(Br)cc2)no1 (stereo not given)
    1	i
Cc1cc(C)c(S(=O)(=O)Nc2cccc(C(=O)N3CCCC3C(=O)NCC3CCCO3)c2)cc1C (stereo not given)
    -0.58	i
CCn1cnc2cc(-c3noc(CCc4c[nH]c5ccccc45)n3)ccc21
    1.4	i
CN(C)C1(CNC(=O)COc2ccc(F)cc2)CCCCC1
    -0.58	i
CC(C)CCn1c(=O)c2ccccc2n2c(=O)n(CC(=O)Nc3ccccc3F)nc12
    2.1	i
CCn1c(CN(C)C(=O)NCC(C)C)nc2cc(C(=O)N(C)C)ccc21
    0.05	i
COc1cc(-c2nc(Cn3ccnc3)no2)cc(OC)c1OC
    0.48	i
COC(=O)CNC(=O)N1Cc2c(C)nn(-c3ccccc3)c2-n2cccc2C1c1cccc(C)c1 (stereo not given)
    0.1	i
COc1ccc(F)cc1-c1cc(N2CCN(S(=O)(=O)c3cc(F)ccc3F)CC2)ncn1
    0.31	i
CC1(C(=O)NC2CCCC2)Cn2cnc(C(=O)Nc3ccc(F)cc3Cl)c2C(=O)N1C1CC1 (stereo not given)
    0.59	i
COc1cccc(N2CC(NC(=O)Nc3nc4c(C)cccc4s3)CC2=O)c1 (stereo not given)
    -1.2	i
Cc1ccc2c(c1)Oc1ccc(S(=O)(=O)N3CC(C)OC(C)C3)cc1C(=O)N2 (stereo not given)
    0.01	i

# A second format for part of the listing above:
mol: COc1ccc(N2C(=O)CCS2(=O)=O)cc1S(=O)(=O)Nc1ccc(F)cc1
  Choline anaer gr early: -0.87	Choline anaer gr: i

mol: CN1C(=O)C2(CCN(C(=O)CC(C)(C)C)C2)c2ccccc21 (stereo not given)
  Choline anaer gr early: 0.08	Choline anaer gr: i

mol: CC(C)C(=O)Nc1ccc(N2CCN(CC(=O)NC(C)(C)C)CC2)cc1C(=O)O
  Choline anaer gr early: 0.35	Choline anaer gr: i

# Part of the list above, as labelled records:
smiles: COc1ccccc1-c1cc2n(C)c(C)c(CCC(=O)N3CCN(C)CC3)c(=O)n2n1
  Choline anaer gr early: -0.31	Choline anaer gr: i
smiles: Cc1csc(NC(=O)Cn2c(=O)n(C(C)C)c3ccc(-c4noc(C)n4)cc32)n1
  Choline anaer gr early: -0.14	Choline anaer gr: i
smiles: C[C@@H]1CC2C3CCC4=CC(=O)C=CC4(C)C3(F)[C@@H](O)CC2(C)C1(O)C(=O)CO (stereo not given in full)
  Choline anaer gr early: 0.72	Choline anaer gr: i
smiles: CCCc1cc(C2CCCN2S(=O)(=O)c2ccc(Br)cc2)no1 (stereo not given)
  Choline anaer gr early: 1	Choline anaer gr: i

# (more compounds)
# The line under a structure holds: Choline anaer gr early	Choline anaer gr
CCC(C)(C)NS(=O)(=O)c1cc(-c2nc(C)c(C(=O)N3CCCC3)s2)cs1
    -0.21	i
COc1cccc(-c2cc(=O)c3ccccc3o2)c1N
    -1.1&0.68&0.86	i
O=C(C1CCN(c2ncnc3c2sc2ncccc23)CC1)N1CCCCC1
    -0.53	i
CCOC(=O)c1cn[nH]c1S(=O)(=O)N1CCN(C)CC1
    -0.85	i
Cc1cccc(OCC(O)Cn2c(C3CC3)nc3ccccc32)c1 (stereo not given)
    -1.2	i
COc1ccc(NC(=O)c2ccc(S(=O)(=O)c3ccc(Br)cc3)nc2)c(OC)c1
    1.6	i
CN(C)C(=O)C1CC(=O)N(C2CCCCC2)C1 (stereo not given)
    0.83	i
CCOc1ccc(NC(=O)CSc2nc(NCc3ccc(Cl)cc3)c3ccccc3n2)cc1
    0.99	i
Cc1ccc(-n2nc(N3CCCN(C(=O)c4ccc(-n5c(C)ccc5C)cc4)CC3)ccc2=O)cc1
    -1	i
CCc1noc(-c2c(C)[nH]c(C)c2S(=O)(=O)N2CCOCC2)n1
    0	i
Cc1nc(CNC(=O)[C@H]2CSCN2C(=O)Cc2ccc(F)cc2)cs1
    -0.68	i
O=C1NC2(CCN(C(=O)C3CC3)CC2)Oc2ccccc21
    0.21	i
COc1ccccc1CNS(=O)(=O)c1cc(-c2nc(C)c(C)s2)sc1C
    0.12	i
COc1ccc(C(=O)Nc2cc(NC(=O)c3cc4ccc(OC)cc4[nH]3)ccc2OC)cc1
    0.7	i
Cc1cc(N2CCOCC2)n2nc(CN3CCN(CC(C)C)CC3)nc2n1
    -0.1	i
O=C(CSc1n[nH]c2nc3ccccc3n12)c1ccccc1
    0.44	i
O=C1NC(=O)c2cc(Nc3ccc(F)cc3)c(Nc3ccc(F)cc3)cc21
    0.09	i
Cc1c(N(C(=O)Cc2c[nH]c3ccccc23)C2(C(=O)NC3CCCCC3)CCCCC2)c(=O)n(-c2ccccc2)n1C
    -0.53	i
Cc1ccc(C2=Nc3ccccc3N(CC(=O)NC(C)CCc3ccccc3)C(=O)C2)cc1C (stereo not given)
    -0.69	i
O=C(c1ccc2ccnc(N3CCN(c4ccccc4F)CC3)c2c1)N1CCCCC1
    0.46	i
Cc1cccc(C)c1NC(=O)N1CCN(Cc2nc3cc(C(=O)N4CCCC4)ccc3n2C)CC1
    -1.3	i
Cc1nnc2ccc(N3CC(C)CC(C)C3)nn12 (stereo not given)
    -0.07	i
CCOC(=O)c1nc2ccccc2nc1NC1CCC(C)CC1 (stereo not given)
    1.1	i
Cc1cccc(NC(c2ccccc2)c2cc(C)sc2NC(=O)c2ccccc2)n1 (stereo not given)
    0.16	i
O=C(NCCc1ccccc1)C1CCN(C(=O)c2sccc2-n2cccc2)CC1
    1.7	i
O=C(O)c1cc(NS(=O)(=O)c2ccc(F)cc2)cnc1N1CCCC1
    0	i
Cc1ccc(S(=O)(=O)Nc2cccc(C(=O)N3CCC(C(=O)NCCC(C)C)CC3)c2)cc1C
    -0.6	i
Cc1ccc(CNC(=O)C2CCCN(c3nn4c(=O)c5c(nc4s3)CCCC5)C2)cc1 (stereo not given)
    -0.62	i
CCOC(=O)c1c(-c2ccccc2)csc1NC(=O)c1csnn1
    1.1	i
Cc1noc(COC2CCCN(S(=O)(=O)c3c(C)noc3C)C2)n1 (stereo not given)
    -0.38	i
CCc1cccc(NC(=O)CCc2nc3cccnc3n2Cc2ccc(OC)cc2)c1
    0.98	i
Cn1c(=O)n(C)c2cc(C(=O)O)ccc21
    -0.12	i
CCC(=O)OCC(=O)[C@]1(OC(=O)CC)C(C)C[C@H]2[C@@H]3CCC4=CC(=O)C=C[C@]4(C)[C@]3(Cl)C(O)C[C@@]21C (stereo not given in full)
    0.3	i
CCOC(=O)C1CCN(C(=O)Cn2ncc3c4ccccc4n(C)c3c2=O)CC1
    0.85	i
CC(C)n1cnc2nc(COc3ccccc3NC(=O)Nc3ccccc3)cc(=O)n21
    -0.6	i
O=c1c2sccc2n2c(SCc3ccc(F)cc3)nnc2n1Cc1ccccc1
    1	i
Cc1[nH]nc2c1C(c1cc(F)ccc1F)CC(=O)N2 (stereo not given)
    -0.36	i
CCOC(=O)c1cc2c(C)[nH]c(C)c2cc(C(=O)OCC)c1=O
    0.63	i
Cc1nn(C)c2nc(OCC(=O)NC3CCCC3)cc(C(F)(F)F)c12
    0.71	i
CC(C)c1cc(C2CCCN2C(=O)NCC2CCCO2)on1 (stereo not given)
    -0.81	i
Cc1nn(-c2nc3ccccc3[nH]2)c2c1C(c1ccccc1Cl)CC(=O)N2 (stereo not given)
    0.58	i
COCCn1c(C)cc(C(=O)NCc2nc3cccnc3n2Cc2ccc(C)cc2)c1C
    -0.79	i
COc1ccc(OC)c(CNC(=O)c2ccc3noc(-c4ccccc4)c3c2)c1
    1.7	i
CN1C(=O)OC(C)(C)C1=O
    0.58	i
CCSc1n[nH]c2nc3ccccc3n12
    -1.1	i
O=C(O)c1nnn(Cc2ccc(Br)cc2)c1C(=O)O
    0.67	i
Cc1cc2nc(COC(=O)c3ccccc3F)cc(=O)n2o1
    -0.09	i
CN1C(=O)CCc2cc(C(=O)NCC3CCCO3)ccc21 (stereo not given)
    -0.22	i
CNS(=O)(=O)c1ccc2nc(NC(=O)c3ccc(N4C(=O)CCC4=O)cc3)sc2c1
    0.02	i
COCCn1nnc2cc(S(=O)(=O)N3CCCCC3C(=O)NCc3ccccc3)ccc21 (stereo not given)
    -0.59	i
